Vero – Vero cell cytotoxicity, dose response, cytotoxicity control for Vif-APOBEC3G degradation inhibitor project, Vero cells (AID 1117358); 2,300 tested, 7% active; Vero viability, CellTiter-Glo ATP luminescence, 72 h; reference of the scale not given here; CC50 in µM for hits, for the others viability, % at the top dose, mostly 40 µM;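 active means viability down to 80% or less at some dose; inactive means above 80% at all doses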
Active calls of the source: *. An excerpt; count on the stated rates, not on these rows.

Start of the data: the first 22 entries (preview)
SMILES	Vero
O=C(CCS(=O)(=O)c1cccs1)Nc1ccc(C(=O)NCc2ccccc2)cc1	84%
CC1=C(C(=O)OCCOc2ccccc2)C(c2ccc(C)o2)C2=C(CC(C)(C)CC2=O)N1 (stereo not given)	103%
COc1cc(OC)cc(C(=O)NNC(=O)c2ccccc2Br)c1	99%
Cc1nc2c3ccccc3n(CC(=O)c3ccc(F)cc3)c(=O)n2n1	93%
COc1ccc(S(=O)(=O)N2CCC(NC(=O)OCc3c(Cl)cccc3Cl)CC2)cc1	83%
Nc1nc2n(n1)C(c1c(F)cccc1Cl)CC(c1ccc(F)cc1)N2 (stereo not given)	90%
CC(C)(C)NC(=O)c1cc([N+](=O)[O-])ccc1N1CCCCC1	101%
Cc1cc(C(=O)N2CCOCC2)n(-c2ccccc2)n1	95%
CC(C)Cn1c(=O)[nH]c2ccccc21	90%
CCOC(=O)c1c(N)sc(=S)c2c1CCC2	90%
Cc1ccc(CSc2nc3c(c(N(C)C)n2)CCCC3)cc1	81%
O=C(COc1ccc(S(=O)(=O)N2CCCC2)cc1)NCCC1=CCCCC1	95%
O=C(O)Cn1c(O)c(C=Nc2ccccc2)sc1=S	99%
Cc1ccc2c(c1C)NC(C(=O)O)C1CC=CC21 (stereo not given)	93%
O=C(CSc1nc(-c2ccccc2)cc(C(F)(F)F)n1)c1cccc([N+](=O)[O-])c1	96%
CN1C(=O)CSc2ccc(NC(=O)NCc3cccnc3)cc21	>40µM*
Cc1nnc(NC(=O)c2ccc(S(=O)(=O)N(C)Cc3ccccc3)cc2)o1	97%
CCOc1cccc(CNc2ccc(O)cc2)c1OCc1ccc(Cl)cc1	81%
O=C1[C@@H]2C(Cc3ccc(O)cc3)NC3(C(=O)Nc4ccc(F)cc43)[C@@H]2C(=O)N1c1ccc(F)cc1 (stereo not given in full)	89%
COc1ccc(NC(=O)c2cccnc2C(=O)O)c(OC)c1	94%
CCOc1ccc(NC(=S)/C(=C(\[O-])c2ccc(C)c([N+](=O)[O-])c2)[n+]2ccccc2)cc1	95%
CCOC(=O)N1CCC(NC(=O)C2CCN(c3nc(-c4ccc(OC)cc4)no3)CC2)CC1	108%

The listing, previewed entries included:
SMILES	Vero
O=C(CCS(=O)(=O)c1cccs1)Nc1ccc(C(=O)NCc2ccccc2)cc1	84%
CC1=C(C(=O)OCCOc2ccccc2)C(c2ccc(C)o2)C2=C(CC(C)(C)CC2=O)N1 (stereo not given)	103%
COc1cc(OC)cc(C(=O)NNC(=O)c2ccccc2Br)c1	99%
Cc1nc2c3ccccc3n(CC(=O)c3ccc(F)cc3)c(=O)n2n1	93%
COc1ccc(S(=O)(=O)N2CCC(NC(=O)OCc3c(Cl)cccc3Cl)CC2)cc1	83%
Nc1nc2n(n1)C(c1c(F)cccc1Cl)CC(c1ccc(F)cc1)N2 (stereo not given)	90%
CC(C)(C)NC(=O)c1cc([N+](=O)[O-])ccc1N1CCCCC1	101%
Cc1cc(C(=O)N2CCOCC2)n(-c2ccccc2)n1	95%
CC(C)Cn1c(=O)[nH]c2ccccc21	90%
CCOC(=O)c1c(N)sc(=S)c2c1CCC2	90%
Cc1ccc(CSc2nc3c(c(N(C)C)n2)CCCC3)cc1	81%
O=C(COc1ccc(S(=O)(=O)N2CCCC2)cc1)NCCC1=CCCCC1	95%
O=C(O)Cn1c(O)c(C=Nc2ccccc2)sc1=S	99%
Cc1ccc2c(c1C)NC(C(=O)O)C1CC=CC21 (stereo not given)	93%
O=C(CSc1nc(-c2ccccc2)cc(C(F)(F)F)n1)c1cccc([N+](=O)[O-])c1	96%
CN1C(=O)CSc2ccc(NC(=O)NCc3cccnc3)cc21	>40µM*
Cc1nnc(NC(=O)c2ccc(S(=O)(=O)N(C)Cc3ccccc3)cc2)o1	97%
CCOc1cccc(CNc2ccc(O)cc2)c1OCc1ccc(Cl)cc1	81%
O=C1[C@@H]2C(Cc3ccc(O)cc3)NC3(C(=O)Nc4ccc(F)cc43)[C@@H]2C(=O)N1c1ccc(F)cc1 (stereo not given in full)	89%
COc1ccc(NC(=O)c2cccnc2C(=O)O)c(OC)c1	94%
CCOc1ccc(NC(=S)/C(=C(\[O-])c2ccc(C)c([N+](=O)[O-])c2)[n+]2ccccc2)cc1	95%
CCOC(=O)N1CCC(NC(=O)C2CCN(c3nc(-c4ccc(OC)cc4)no3)CC2)CC1	108%
COc1ccc(CNC(=O)CN(CC2CCCO2)C(=O)CNS(=O)(=O)c2ccc(C)cc2)cc1 (stereo not given)	101%
COc1ccc(CC(=O)OCn2nnc3ccccc3c2=O)cc1	>40µM*
Cc1nnc(-c2cnn(C)c2N)n1Cc1ccc(Cl)cc1	90%

Remaining list, next part.
SMILES	Vero
C=CCN1C(=O)CSc2ccc(C(=O)NCc3ccco3)cc21	92%
C=CCn1c(Sc2nc(C)cs2)nc2c1c(=O)[nH]c(=O)n2C	95%
CS(=O)(=O)c1ccc2c(c1)SC1=NC(=O)/C(=C/c3ccco3)C(=N)N12	98%
O=C(Cn1nc(-c2ccc(Cl)cc2)ccc1=O)NCc1ccc2c(c1)OCO2	98%
CSc1ncccc1C(=O)OCC(=O)N1CCOCC1	94%
CCC(C)(C)C1CCc2c(sc(NC(=O)c3ccoc3C)c2C(N)=O)C1 (stereo not given)	94%
COc1ccc(-n2c(=O)[nH]cc(C(=O)N3CCc4ccccc43)c2=O)cc1	105%
Cc1cccc(C)c1NC(=O)COC(=O)c1cc(-c2cccnc2)nc2ccccc12	81%
COc1ccc(/C=N/NC(=O)CNc2n[nH]c(=O)[nH]c2=O)cc1OC	96%
COC(=O)c1cccc(NC(=O)NC2CCCN2S(=O)(=O)c2ccc(Cl)cc2)c1 (stereo not given)	91%
O=C(CCn1c(=S)oc2ccccc21)Nc1ccc2c(c1)OCCO2	103%
C=CCn1c(N2CCCCCC2)nc2c1c(=O)[nH]c(=O)n2C	95%
Cc1cnnc2ccc3c(no[n+]3[O-])c12	112%
CC(=O)NS(=O)(=O)c1cccnc1Nc1cccc(Cl)c1	98%
COc1ccccc1N1C(=O)CC(Sc2nccc(C)n2)C1=O (stereo not given)	90%
COC(=O)Cc1cc(=O)[nH]c(/N=C(\N)Nc2ccc(C)cc2)n1	93%
CCN(Cc1ccccc1)S(=O)(=O)c1ccc(C(=O)Nc2nnc(C3CC3)o2)cc1	20µM*
O=C(O)c1ccc(S(=O)(=O)c2ccc3c(c2)C(=O)N(Cc2ccco2)C3=O)cc1	101%
O=C(NCC1CCCO1)c1cc(-c2ccco2)nc2ccccc12 (stereo not given)	101%
CC(=O)c1ccc(NC(=O)c2ccc3nc(-c4ccco4)c(-c4ccco4)nc3c2)cc1	90%
O=C(NC1CCN(C(=S)NCc2ccco2)CC1)C12CC3CC(CC(C3)C1)C2	101%
COc1ccc(/C=N/c2c(-c3ccco3)nc3ccccn23)cc1OC	89%
O=C(CN1CCCCC1)Nc1nnc(-c2ccccc2)s1	100%
CCc1cc(C=NC2CCCCC2)c(O)s1	109%
CC(C)(C)NC(=O)c1cnn2c1NC(c1ccc(F)cc1)CC2C(F)(F)F (stereo not given)	101%

The final 2 entries of the part before are carried over, then new ones follow:
SMILES	Vero
CCc1cc(C=NC2CCCCC2)c(O)s1	109%
CC(C)(C)NC(=O)c1cnn2c1NC(c1ccc(F)cc1)CC2C(F)(F)F (stereo not given)	101%
O=C(NCc1cccs1)Nc1cccs1	105%
O=C(NCCO)c1ccc2nc(-c3ccco3)c(-c3ccco3)nc2c1	102%
COC(=O)Cn1ncn2c(cc3oc(C)cc32)c1=O	88%
COc1ccc(S(=O)(=O)Nc2ccc3c(c2)OCO3)cc1C	97%
O=C(NCN1C(=O)C2C3C=CC(C3)C2C1=O)OC1CCCCC1 (stereo not given)	102%
COc1ccc(C2CC(=O)N3CN(c4ccc(C)c(Cl)c4)CSC3=C2C#N)cc1 (stereo not given)	102%
O=c1c(-c2cc3ccccc3o2)[n+]([O-])c2ccccc2n1OCc1ccccn1	85%
CCOC(=O)CN1C(=O)C(Sc2n[nH]c(-c3ccccc3)n2)CCc2ccccc21 (stereo not given)	93%
CCc1ccc(OCCNC(=O)c2cccs2)cc1	99%
CCOC(=O)CCC(=O)N1CCNC(=O)C1	89%
O=c1oc(/C=C/c2ccco2)nc2sc3c(c12)CCC3	97%
O=C(C1CCN(S(=O)(=O)N2CCOCC2)CC1)N1CCN(Cc2ccc3c(c2)OCO3)CC1	94%
CC1=C(C(=O)OC(C)C)C(c2ccc(Br)s2)NC(=O)N1C (stereo not given)	94%
CCOc1cc(CNc2ccc(O)cc2)cc(Br)c1OCc1ccccc1F	82%
CC(C)(C)n1nc2c(c1NC(=O)c1ccc(Br)o1)CS(=O)C2 (stereo not given)	99%
COC(=O)c1cc(OC)c(OC)cc1NC(=O)c1ccco1	100%
CC1(C)CCN(Cc2ccccc2)C1CC#N (stereo not given)	89%
COC(=O)c1sc(NC(=O)c2ccc(Cn3cc(Cl)cn3)o2)c(C#N)c1C	98%
CCCCN(C)C(=O)c1cn(CC)c2ccc(S(=O)(=O)N(C)C)cc2c1=O	94%
O=C(NCCSCc1ccccc1)c1ccc(C2SCC(=O)N2Cc2ccccc2)cc1 (stereo not given)	109%
CCc1nnc(NC(=O)c2ccc3c(c2)C(=O)N(C(C)(C)C)C3=O)s1	94%
Cc1ccc2cc(CN(Cc3nnnn3Cc3ccco3)CC3CCCO3)c(=O)[nH]c2c1C (stereo not given)	101%
CCOCC(O)CS(=O)Cc1ccccc1 (stereo not given)	97%
CN(C)c1ccc(NC(=O)CSc2nc3ccccc3c(=O)n2C2CCCCC2)cc1	101%
CCc1ccccc1N(CC)C(=O)CCc1nc(-c2ccc(C)cc2)no1	84%

Going on with the list.
SMILES	Vero
CCc1nnc(SCC(=O)NC2CCCCC2)nc1CC	104%
c1coc(-c2nc(-c3ccco3)c(-c3ccco3)nc2-c2ccco2)c1	99%
COc1ccc(CNC(=O)Cn2nc(C(F)(F)F)c3c2CCC3)cc1	104%
Cc1ccc(Nc2nc(C(=O)NCc3ccco3)cs2)cc1	>40µM*
CCCCn1c(NCc2ccccc2NS(=O)(=O)c2ccc(C)cc2)nc2ccccc21	>40µM*
c1ccc(-c2cc(-c3nnc4n3N=C(c3ccc5ccccc5c3)CS4)[nH]n2)cc1	>40µM*
O=C(Nc1ccccc1C(F)(F)F)c1cc(-c2ccc(O)cc2)on1	84%
O=C(Nc1nnc(C2CC2)o1)c1ccc(S(=O)(=O)N2CCCc3ccccc32)cc1	15µM*
CCOC(=O)C1=C(C)NC(C)=C(C(=O)OCC)C1c1cn(-c2ccccc2)nc1-c1ccco1	92%
CC(=O)Nc1c(O)nc(SCC(=O)Nc2ccc(C(C)=O)cc2)[nH]c1=O	102%
CCCC1=NN2C(=N)/C(=C\c3ccc(SCc4ccco4)o3)C(=O)N=C2S1	106%
Cc1nnc(SCC(=O)NCc2cccs2)[nH]c1=O	96%
Cc1ccc[n+](-c2[nH]c(=O)sc2/C=N/NC(=O)c2ccccc2[O-])c1	>40µM*
CC(=O)Oc1cccc(N2C(=O)CC(Nc3ccc(N4CCOCC4)cc3)C2=O)c1 (stereo not given)	92%
COC(=O)c1ccccc1NC(=O)C1CCCC1	96%
Oc1ccc(N=Cc2ccc(-c3cccs3)s2)cc1	95%
Cc1ccc(SCC(=O)c2sc(-c3ccccc3)nc2C)cc1	94%
CCOc1ccc(Nc2nc(Cc3nnc(SCC(=O)NCC4CCCO4)n3C)cs2)cc1 (stereo not given)	98%
COC(=O)/C(=C\Nc1ccccc1)NC(=O)c1ccc(Cl)cc1Cl	92%
Cc1ccc(C2SCC(=O)N2Cc2cn3ccsc3n2)o1 (stereo not given)	107%
Cc1cc(-c2ccco2)n(-c2ccccc2)n1	91%
O=C(Nc1ccccc1[N+](=O)[O-])C1C(c2ccccc2)=C1c1ccccc1	101%
Cc1ccnc(-n2c(CCN3C(=O)c4ccccc4C3=O)nc3ccccc3c2=O)c1	98%
O=S(=O)(NCc1ccccc1Cl)c1cnc[nH]1	94%
CCN(C(=O)CCc1nc(-c2ccccc2F)no1)c1cc(OC)ccc1OC	90%

Next compounds follow.
SMILES	Vero
C/C(=N\OCC(=O)NC12CC3CC(CC(C3)C1)C2)c1cc2ccccc2o1	84%
CCN1C(=O)c2ccccc2S(=O)c2ccc(C(=O)NC3CC3)cc21 (stereo not given)	98%
O=C(NCc1ccco1)C1CCCN(S(=O)(=O)c2cccc3nsnc23)C1 (stereo not given)	98%
Cc1cccc(C)c1N1C(=O)C2ON(c3ccccc3)C(c3ccncc3)C2C1=O (stereo not given)	96%
COc1ccc(OC)c(NC(=O)c2[nH]c(C)c(C(C)=O)c2C)c1	90%
COc1ccc(S(=O)(=O)N2CCCCCC2)cc1C(=O)OCC(=O)NC(N)=O	93%
COC(=O)CSc1nnc(CNC(=O)c2ccccc2OC)n1-c1ccc(OC)cc1	97%
O=C(CSc1nnc(CN2CCCCC2)n1-c1ccccc1)c1ccc2c(c1)OCO2	102%
COC(=O)Nc1ccc(C)c2nsnc12	99%
Cc1ccc(CSC2=Nc3sccc3C3=NC(=O)CN23)cc1	85%
COC(=O)Nc1sc2c(c1C(=O)NCc1ccco1)CCCC2	104%
CNC(=O)CN1C(=O)NC2(CCc3ccccc32)C1=O (stereo not given)	92%
COCCn1c(-c2ccc(OC)cc2)nc2ccccc21	92%
CC1CCCCN1CCCNC(=O)C1CCN(c2nc3ccccc3o2)CC1 (stereo not given)	98%
COc1ccccc1Cn1c(-c2ccccc2OC)nc2ccccc21	>40µM*
CCC(=O)Nc1nc2ccc(NC(C)=O)cc2s1	91%
COc1ccc(CCNC(=O)CN2CCCc3ccccc32)cc1OC	99%
c1ccc2c(c1)CCCN2Cc1nnc2n1CCCCC2	108%
O=C(c1ccco1)N1CCN(C(c2ccccn2)c2nnnn2C2CCCC2)CC1 (stereo not given)	97%
COc1ccccc1S(=O)(=O)Cc1ccc(C(=O)N2CCN(c3ccccn3)CC2)o1	101%
COc1ccc(N2CCN(c3oc(COc4ccc(Cl)cc4Cl)nc3C#N)CC2)cc1	91%
CCn1c(SCC(=O)NCC(=O)Nc2ccc(F)cc2)nnc1-c1ccncc1	95%
Cc1ccc(C(C)C)c(OCCN(C)C)c1	92%
CCCNC(=O)c1ccc(-c2nc3ccccc3s2)s1	89%
Cc1[nH]c2c(Cl)cccc2c(=O)c1CN1CCCC1	107%
N#CC1=C(Nc2ccccc2)SC=C(c2ccc(Br)cc2)N=C1N1CCOCC1	92%
Cc1cc(C(=O)N2CCN(CCc3ccccc3)CC2)no1	105%

Compound activity from PubChem.
